HNF4A DNA FP = change in binding of human HNF4 alpha to DNA; 0.3% of 360,000 active; HNF4a-FITC DNA binding, fluorescence polarization, 1 h; P41235; activity change, % at 10 µM; in the data active means activity change above about 30%, passing the limit was not always enough;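 further: controls were the assay level and a saturating level of protein; the project sought stronger binding though the title names inhibitors; some compounds called inactive have numbers as strong as hits; positive values seem to mean higher polarization but the record does not say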
Target sequence (P41235 whole entry, looked up): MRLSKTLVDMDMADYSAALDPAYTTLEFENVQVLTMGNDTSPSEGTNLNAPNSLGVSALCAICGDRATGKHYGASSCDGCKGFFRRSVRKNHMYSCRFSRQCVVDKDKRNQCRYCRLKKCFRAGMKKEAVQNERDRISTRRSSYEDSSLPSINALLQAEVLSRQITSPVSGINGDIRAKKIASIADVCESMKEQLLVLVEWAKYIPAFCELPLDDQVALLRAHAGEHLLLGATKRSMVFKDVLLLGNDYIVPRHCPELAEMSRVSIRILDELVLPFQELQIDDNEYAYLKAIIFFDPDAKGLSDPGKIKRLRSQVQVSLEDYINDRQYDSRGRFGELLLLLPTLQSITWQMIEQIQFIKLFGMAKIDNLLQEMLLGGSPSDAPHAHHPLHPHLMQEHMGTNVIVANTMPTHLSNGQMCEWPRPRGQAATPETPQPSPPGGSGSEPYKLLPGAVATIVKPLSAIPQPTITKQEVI
Vif TR-FRET = inhibitors of Vif binding to APOBEC3G peptide, primary screen, biochemical, TR-FRET, GST-Vif 1-94, biotin-A3G peptide, dose response retest (AID 1117319); 0.57% of 260,000 active; inhibition, %; hits with a dose series show IC50 in µM; TR-FRET GST-Vif / biotin-A3G peptide binding; higher % means a stronger effect; test concentration not given here; strong numbers were not always called active;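 active means above the screen mean plus three standard deviations and confirmed in dose response; inconclusive means results disagree or hit not tested in dose response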;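 further: Vif residues 1-94 fused to GST binding biotinylated APOBEC3G peptide 110-148; 0% = full assay without inhibitor and 100% = GST in place of GST-Vif; retest series ran down from 100 µM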
LANA-H2A inh = blocks KSHV LANA binding to histone H2A/H2B; Q9QR71; cell-free LANA-H2A/H2B peptide, fluorescence polarization; inhibition, % (no concentration beside the values); 0.6% of 320,000 active; AID 2629; in the data active means inhibition mostly above about 10%, no sharp cut-off; inactive means mostly below about 6.7%;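 further: stock transfer was 7.5 nL into about 10 µL; 0% = median of vehicle wells and 100% = median of positive control wells; one replicate is shown; the record names a cut of 25% in any replicate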
Beta2AR agonist = human beta-2 adrenergic receptor agonism by FAP; P07550; Am2.2-beta2AR cells, FAP receptor internalization, flow cytometry; reference of the scale not given here; response, % (concentration not given with the values); 0.43% of 340,000 active; AID 504454;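 active means response above a set limit, near 3 SD of response in nonfluorescent compounds, cut at about 42% in these data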;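 further: stock transfer was 100 nL into about 11 µL; a reference agonist was the positive control; negative values mostly stem from fluorescent compounds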
Target sequence (P07550 whole entry, looked up): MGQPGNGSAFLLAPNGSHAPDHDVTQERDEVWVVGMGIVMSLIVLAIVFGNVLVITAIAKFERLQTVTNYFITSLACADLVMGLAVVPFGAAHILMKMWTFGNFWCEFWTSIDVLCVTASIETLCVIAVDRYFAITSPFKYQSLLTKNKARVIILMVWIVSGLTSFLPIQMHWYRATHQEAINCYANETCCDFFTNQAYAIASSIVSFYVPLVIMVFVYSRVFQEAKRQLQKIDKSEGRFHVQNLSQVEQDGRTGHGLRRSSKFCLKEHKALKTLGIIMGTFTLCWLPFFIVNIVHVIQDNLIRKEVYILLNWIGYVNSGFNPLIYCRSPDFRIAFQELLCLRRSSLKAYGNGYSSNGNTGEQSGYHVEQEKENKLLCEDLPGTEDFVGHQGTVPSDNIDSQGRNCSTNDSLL
RanGTP-Impb inh = disruptors of Ran-importin-beta complex formation – biochemical, FRET, CFP-Ran, YFP-importin-beta, homogeneous, primary screen. AID 2216. cell-free CFP-Ran/YFP-importin-beta FRET ratio. inhibition, % (concentration not given with the values). 1.1% of 300,000 active;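 active means most replicates above 15%; inconclusive means exactly half above 15%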;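 further: 0% = DMSO wells and 100% = Ran loaded with GDP instead of GTP; wells of about 40 µL received 100 nL stock; the first replicate is given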
Calb FLC = C. albicans growth modulation with fluconazole | C. albicans CaCi-2 (fluconazole-resistant clinical isolate) + fluconazole, Alamar Blue growth, 48 h | growth inhibition, % (concentration not given with the values) | 0.57% of 300,000 active;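 active means most replicates above 75%; inconclusive means exactly half above 75%; inactive means most below 75%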;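 further: all wells also contain fluconazole at 8 µg/ml as a sub-toxic cotreatment; 0% = median of DMSO wells and 100% = median of geldanamycin control wells; wells of about 8 µL received 7.5 nL stock; the first replicate is given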
ALR H2O2 inh = human ALR oxidase inhibition via reduced H2O2; 3.8% of 290,000 active; purified ALR, DTT oxidation, H2O2 HRP-luminol luminescence; P55789; inhibition, % (test concentration not listed); AID 485317;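 active means mean and each replicate at 75% or more; inconclusive means only one of the two met; inactive means neither met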;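 further: stock transfer was 7.5 nL into about 7.5 µL; 0% = neutral wells and 100% = wells with inactivated enzyme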
Target sequence (P55789 whole entry, looked up): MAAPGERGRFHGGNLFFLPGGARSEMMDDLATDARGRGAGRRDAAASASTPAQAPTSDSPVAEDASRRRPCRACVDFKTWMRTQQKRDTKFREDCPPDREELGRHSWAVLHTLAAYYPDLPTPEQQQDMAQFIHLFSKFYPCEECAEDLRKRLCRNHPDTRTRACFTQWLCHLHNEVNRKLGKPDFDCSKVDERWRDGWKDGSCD
Starred values were filed as active, the others as inactive; ? = inconclusive; . = not tested or not shown; & = joins results of further samples.

SMILES | HNF4A DNA FP | Vif TR-FRET | LANA-H2A inh | Beta2AR agonist | RanGTP-Impb inh | Calb FLC | ALR H2O2 inh
O=C(CSc1nc(-c2ccco2)cc(C(F)(F)F)n1)NCC1CCCO1 (configuration not stated) | -3.3 | 1.9%&-6.3% | -4.8 | -11.6 | 2.2 | -16.0 | -8.3
COc1ccc(Cl)cc1C(=O)NNC(=O)COC(=O)c1ccc(Br)o1 | 2.5 | -4.9% | -1.6 | -13.6 | . | . | -11.2
Cc1ccc(C(=O)Nc2ncc(Cc3ccccc3)s2)o1 | 1.9 | 14.1% | -3.3 | 6.6 | 1.5 | -0.7 | 1.1
Cc1ccc(NC(=O)CCc2nc3ccccc3c(=O)[nH]2)cc1S(=O)(=O)N1CCOCC1 | 3.4 | -2.0% | 7.5 | 11.5 | -1.7 | -2.0 | 11.5
CCCN1C(=O)/C(=C/c2ccc(N3CCOCC3)cc2)NC1=S | 90.5* | -8.6% | -2.4 | 13.4 | -96.7 | -6.4 | 74.3
COc1ccc(CCNC(=O)c2nnn(CC(=O)Nc3ccccc3)c2N)cc1OC | 1.5 | 1.6% | -0.9 | -7.0 | 9.1 | -7.5 | -1.9
COc1ccc(/C=N/OC(=O)Nc2ccc(Cl)cc2)c(OC)c1 | 1.8 | 17.6% | 2.7 | 11.1 | 1.8 | -4.8 | -1.3
Cn1c(=O)[nH]c(=O)c2c1nc(N1CCCCC1)n2CC(O)CN1CCCCC1 (configuration not stated) | -0.9 | 9.3% | -1.0 | 2.8 | 5.3 | ? | -2.5
Cc1cccc(N2C(=O)C3C4C=CC(CC4)C3C2=O)c1 (configuration not stated) | 1.8 | -1.4% | 3.1 | 2.8 | -4.3 | -8.0 | -1.3
Cc1cc(NCCO)nc(-n2nc(C)cc2C)n1 | -0.8 | 7.0% | 3.5 | 7.8 | -9.8 | 0.4 | .
COc1ccc(NC(=O)Cn2cnc3c(cnn3C(C)(C)C)c2=O)cc1OC | -1.5 | 1.3% | 2.9 | 9.0 | -0.1 | -12.1 | 10.3
O=C1CC(SCCO)C(=O)N1c1ccccc1 (configuration not stated) | 2.8 | 2.8% | -1.1 | 7.4 | -2.1 | -2.1 | -1.5
CCC1Oc2ccc(C)cc2N(CC(=O)NCCCN2CCN(Cc3ccccc3)CC2)C1=O (configuration not stated) | -0.7 | -2.8% | 6.3 | 7.3 | 3.9 | -18.7 | -4.8
O=C(CSCC(=O)c1ccccc1)Nc1ccccc1Cl | 4.3 | -5.7% | 1.2 | -6.2 | 2.6 | -18.8 | ?
COc1cc(Cl)c([C@@H]2C[C@H]3CN(c4ccccc4)C(=O)[C@]34CCCN24)cc1OC | -3.8 | . | -1.4 | 2.6 | 0.7 | -7.5 | -7.9
COc1ccc(C)cc1NC(=O)CN1CCN(c2ccccc2F)CC1 | -0.2 | 8.2% | -3.1 | -1.5 | . | . | -7.2
CC(/C=C\C=C\c1ccccc1)=N\NC(=O)c1cncc(Br)c1 | 1.3 | . | 76.6* | 1.5 | ? | 9.0 | -4.3
CCOc1ccccc1-c1noc(CCC(=O)Nc2cccnc2)n1 | 1.7 | . | 2.6 | -4.8 | -0.7 | -1.1 | .
CCOC(=O)c1sc(NC(=O)Nc2ccc(F)cc2)nc1C | -2.3 | 24.7% | -2.5 | -9.5 | 18.4* | 48.7 | 0.1
CCCN(CCC)C(=O)C1CCN(c2ccc(S(=O)(=O)N3CCOCC3)cc2[N+](=O)[O-])CC1 | -3.5 | . | -2.9 | 7.8 | 2.1 | -4.6 | -1.3
CC(C)n1c(NCc2nc3ccccc3n2C)nc2ccccc21 | -2.5 | 10.3% | -7.9 | -1.5 | 1.7 | 3.0 | 42.8
CC(=O)N1CCN(CC(=O)Nc2ccc(C)c(S(=O)(=O)N(C)C)c2)CC1 | -1.2 | -5.7% | . | 4.8 | 0.6 | 8.4 | .
C[C@H](NC(=O)c1ccccc1)C(=O)OCC(=O)Nc1ccc2c(c1)OCO2 | 0.8 | -10.7% | -0.3 | 8.0 | . | . | -7.3
CN1c2ccc(Cl)cc2C(=O)NC1C1CC=CCC1 (configuration not stated) | 1.8 | -1.7% | -1.4 | -6.0 | 29.6* | -4.9 | 0.6
O=C(CN1C(=O)S/C(=C\c2ccc(F)cc2)C1=O)NCCCn1ccnc1 | 3.2 | 3.2% | 0.3 | -7.5 | 2.1 | 4.8 | -18.2
SMILES | HNF4A DNA FP | Vif TR-FRET | LANA-H2A inh | Beta2AR agonist | RanGTP-Impb inh | Calb FLC | ALR H2O2 inh
COc1ccc(NC(=O)c2ccc(CNc3c(NC4CCCCC4)c(=O)c3=O)cc2)cc1OC | 6.3&-0.2 | 5.7%&-3.3% | 8.2 | 1.1&8.4 | 0.4 | 3.6 | .
CCOC(=O)N1CCN(C(=O)Nc2ccc(Cl)cc2)CC1 | 1.2 | -4.9% | 3.1 | 1.8 | 2.6 | 3.5 | 21.0
c1ccc(-c2csc(-c3ccc(-c4csnn4)cc3)n2)cc1 | -4.2 | -13.2% | 3.0 | -3.8 | 6.2 | -8.5 | 8.0
Cc1ccc2c(CC(=O)NCc3ccco3)coc2c1C | 2.8 | 3.3% | 2.0 | 1.2 | 4.5 | -1.3 | 0.4
CC1CCN(CC(O)Cn2c3ccccc3c3ccccc32)CC1 (configuration not stated) | 1.1 | . | -1.5 | -5.7 | 4.3 | -56.2 | -66.2
Cc1csc(SCC(=O)NC2CCS(=O)(=O)C2)n1 (configuration not stated) | 0.8 | -3.3% | -0.5 | -1.8 | . | . | -1.2
Cc1ccc(Sc2ncccc2C(=O)O)cc1C | 0.3 | 0.7% | -0.7 | 2.0 | 7.4 | 16.0 | 58.2
O=C(NC1CC1)C1=C[C@@H](c2ccccc2)C[C@@H](OCc2ccc(CO)cc2)O1 | 1.9 | -15.3% | 2.3 | -14.8 | 0.0 | 2.9 | -7.9
O=C(CSc1nnc(-c2ccco2)n1Cc1ccco1)Nc1ccccc1 | 3.9 | 3.7% | -3.6 | -16.9 | -1.4 | 13.8 | -0.2
O=C(CN1CCCCC1)Nc1cccc2c1OCO2 | -0.7 | 1.3% | 4.3 | -5.2 | 0.7 | -1.7 | -2.4
CCCCCNc1nc2ccccc2nc1NS(=O)(=O)c1cccs1 | -2.5 | 7.2% | -0.7 | -11.7 | -1.5 | 22.0 | 7.5
Cc1cc(N2CCOCC2)nc(N2CCOCC2)n1 | -1.3 | -11.6%&-5.1% | -4.5 | 5.3 | 6.9 | 4.2 | 3.4
O=C(NC(C(=O)N/N=C/c1cccnc1)c1n[nH]c(=O)c2ccccc12)c1ccccc1 (configuration not stated) | -35.9 | 2.2% | -0.4 | -13.1 | -0.7 | 2.1 | -5.4
CCC(C)(C)NC(=O)C(c1cccs1)N(C(=O)c1ccn[nH]1)c1ccccc1 (configuration not stated) | -2.3 | 3.4% | 4.7 | 7.6 | -0.3 | -17.0 | -17.1
Cc1ccc(C(=O)O)cc1NC(=O)C1CCCN1S(=O)(=O)c1cccc2nsnc12 (configuration not stated) | -0.5 | 8.4% | -5.0 | 8.2 | -0.1 | -1.1 | 0.8
CC(C)CN(C(=O)COC(=O)Cc1c[nH]c2ccccc12)c1c(N)n(Cc2ccccc2)c(=O)[nH]c1=O | 1.9 | 5.0% | 1.8 | 0.7 | 3.9 | . | -0.3
COc1ccc(CCNC(=O)CN2C(=O)NC3(CCCCC3C)C2=O)cc1 (configuration not stated) | 3.8 | -4.6% | 1.9 | -1.1 | . | . | 5.7
Cc1cc(C)n(-c2nc(Nc3ccccc3)nc(-n3nc(C)cc3C)n2)n1 | -1.1 | -5.9% | 4.4 | -2.9 | -1.9 | -2.8 | -2.5
Cc1ccc(Cl)cc1NC(=S)NN | 2.2 | 9.5% | 0.3 | 16.9 | 0.1 | -14.4 | 10.2
COCCN1C(=O)/C(=C/c2ccc(OCc3ccc(C(=O)O)cc3)c(OC)c2)SC1=Nc1ccccc1 | -1.6 | 1.5% | 1.1 | 18.5 | -2.8 | 40.6 | 35.8
COc1ccc(CCc2nnc(CCC(=O)N(C)Cc3ccncc3C)o2)cc1 | 0.4 | -5.1% | 4.8 | -3.9 | 1.1 | 2.5 | .
O=C(CCN1CCN(Cc2ccccc2)CC1)Nc1ccc(OCc2ccccc2)cc1 | 0.0 | 3.8% | 3.7 | -4.2 | -1.7 | -13.1 | -6.7
O=C(COC(=O)/C=C/c1ccccc1)NCc1cccs1 | 4.9 | 6.9% | 2.9 | -4.7 | . | . | 0.3
Cc1cccc(OCC(=O)N(C)c2c(N)n(Cc3ccccc3)c(=O)[nH]c2=O)c1C | -6.1 | -2.1% | . | 7.6 | . | . | -1.7
COC(=O)C1=C(C)N(Cc2ccco2)C(=O)N[C@@H]1c1cccc(C(F)(F)F)c1 | . | -4.1% | 5.4 | 2.6 | ? | 13.0 | -8.6
SMILES | HNF4A DNA FP | Vif TR-FRET | LANA-H2A inh | Beta2AR agonist | RanGTP-Impb inh | Calb FLC | ALR H2O2 inh
COC(=O)c1[nH]c(C)c(/C(O)=C2\C(=O)C(=O)N(CCN3CCOCC3)C2c2ccccc2OC)c1C (configuration not stated) | 1.6 | -2.4% | 0.1 | -9.6 | -1.9 | -14.1 | 2.3
COc1cc(C(=O)NCCOc2ccccc2C)c(Br)c(OC)c1OC | 10.7 | ? | -0.7 | 0.1 | -0.2 | -7.2 | -1.5
COc1ccc(-c2cc(C#N)nc(Oc3ccc(Cl)cc3)n2)cc1 | -3.9 | 25.5% | 0.3 | 6.5 | 3.6 | 5.3 | .
Cc1ccc(NC(=O)C2CCN(S(=O)(=O)c3ccc(Cl)c(C(F)(F)F)c3)CC2)nc1 | 0.1 | 0.4% | 2.8 | -4.9 | 20.1* | 12.9 | 0.2
COCCN(CCOC)Cc1cc(=O)oc2cc3c(cc12)CCC3 | 2.6 | 7.2% | 1.2 | 2.0 | 2.4 | 15.9 | .
CCC(C)[C@@H]1NC(=O)N(CCCN2CCCC2=O)C1=O (some centres not stated) | 0.7 | -8.4% | 3.0 | -3.0 | 2.3 | -4.2 | -13.5
COc1ccccc1CNC(=O)COc1ccc(C)nc1[N+](=O)[O-] | -1.1 | 3.7% | 0.2 | -3.8 | -2.0 | -26.6 | -0.3
Cc1ccc2c(c1)C(=O)CCN2 | 0.7 | -1.0% | 0.4 | -1.6 | ? | ? | -10.2
CCC(=O)Nc1nc2c(s1)COc1ccccc1-2 | 0.2 | 1.9% | 1.2 | -1.9 | 3.4 | 0.8 | .
Cc1ccc(S(=O)(=O)CCC(=O)NCc2ccccc2F)cc1 | -2.1 | . | 0.0 | 0.9 | . | -2.6 | 3.0
CCn1cc(C(=O)N[C@@H](C)C(=O)NCCCN2CCOCC2)c(=O)c2cc3c(cc21)OCO3 | 0.4 | -4.1% | -4.9 | 9.2 | 6.2 | 2.8 | 6.7
O=C(N/N=C/c1cn(-c2ccccc2)nc1-c1cc2ccccc2o1)c1ccncc1 | 4.3 | -7.2% | -4.4 | 7.9 | 2.0 | -3.1 | -5.1
COc1ccc(CN2C(=O)CSC2c2ccncc2)cc1 (configuration not stated) | 1.5 | -2.3% | -2.9 | 3.0 | -3.3 | -2.8 | -8.8
c1ccc(CNc2ncnc3scc(-c4cccs4)c23)nc1 | -3.2 | -8.2% | -4.5 | 5.5 | 2.0 | -20.9 | 3.5
Cc1ccc(S(=O)(=O)NCCC(=O)NCCN2CCCCCC2)cc1 | 7.1 | -0.1% | -4.0 | -4.0 | -0.7 | 8.0 | -2.1
COc1cccc(NC(=O)CSc2nnc(-c3ccoc3C)n2CC2CCCO2)c1 (configuration not stated) | -1.2 | -3.0% | -5.7 | 5.5 | 2.7 | -4.4 | -2.5
Cc1ccc(C(=O)CSc2nnc(CNc3ccc(F)cc3)o2)cc1 | -2.8 | 10.0% | 0.3 | 0.3 | 1.5 | -7.4 | 8.3

Compound activity from PubChem BioAssay.
